Mtb H37Rv – M. tuberculosis H37Rv growth inhibitors, H37Rv strain (AID 1626) | M. tuberculosis H37Rv growth inhibition; higher % means a stronger effect | 220,000 compounds, 0.95% hits | inhibition, % at 10 µM; hits with a dose series show IC50 in µM;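 active = confirmed in a dose series; inconclusive = inhibition above 80% but not taken into the dose series; inactive = below 80% or under 30% at every dose of the series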;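 also: bacteria incubated seven days before Alamar blue readout; 0% = bacteria only wells and 100% = bacteria with antibiotic wells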
RecA intein inh – Mtb RecA intein splicing inhibitors, primary screen, biochemical, fluorescence, HTS; Protein RecA (Mycobacterium tuberculosis (strain ATCC 25618 / H37Rv)), P9WHJ3; cell-free RecA intein splicing; inhibition, %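 (about 9 µM by stock and volumes)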; 290,000 compounds, 0.75% hits; in the data active = inhibition above about 30%; inconclusive = no clear call, values can overlap the other calls;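 also: 0% = vehicle wells and 100% = reference inhibitor control wells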
Target sequence (P9WHJ3 whole entry, looked up): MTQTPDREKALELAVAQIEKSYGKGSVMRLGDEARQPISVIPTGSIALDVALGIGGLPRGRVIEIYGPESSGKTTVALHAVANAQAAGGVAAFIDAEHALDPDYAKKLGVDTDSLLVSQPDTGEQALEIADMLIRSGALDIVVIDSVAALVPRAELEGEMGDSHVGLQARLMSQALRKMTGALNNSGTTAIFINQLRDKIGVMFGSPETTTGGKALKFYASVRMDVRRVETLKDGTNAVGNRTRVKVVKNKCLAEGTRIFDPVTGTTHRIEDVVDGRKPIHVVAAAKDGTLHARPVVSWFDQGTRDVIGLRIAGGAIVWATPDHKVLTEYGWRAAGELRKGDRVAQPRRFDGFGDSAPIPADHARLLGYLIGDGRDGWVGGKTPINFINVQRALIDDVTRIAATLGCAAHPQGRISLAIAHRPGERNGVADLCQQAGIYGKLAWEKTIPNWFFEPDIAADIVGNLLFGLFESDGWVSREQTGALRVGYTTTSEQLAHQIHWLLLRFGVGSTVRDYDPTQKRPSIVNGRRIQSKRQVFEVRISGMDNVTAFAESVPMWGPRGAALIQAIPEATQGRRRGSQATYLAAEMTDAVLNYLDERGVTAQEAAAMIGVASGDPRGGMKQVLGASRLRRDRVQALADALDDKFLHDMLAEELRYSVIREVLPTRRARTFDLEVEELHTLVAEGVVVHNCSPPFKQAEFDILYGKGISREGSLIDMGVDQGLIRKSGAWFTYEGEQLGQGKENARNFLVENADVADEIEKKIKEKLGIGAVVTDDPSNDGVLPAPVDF
Arbovirus inh – antivirals against arbovirus infection, primary screen, cell-based, full library, 10K replicate subset. inhibition, % at 10 µM. AID 1251, 2008. arbovirus infection cell-based antiviral screen. 200,000 compounds, 0.37% hits;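 active = inhibition from about 30%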;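 also: bluetongue infection of BSR cells; cell survival read as ATP light after 72 h; 0% = infected wells without compound and 100% = uninfected wells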
Mtb betalactam – beta-lactam sensitization of Mtb H37Rv, H37Rv; M. tuberculosis H37Rv growth with meropenem, percent inhibition; hits of this screen are not shown here; inhibition, % at 25 µM; 330,000 compounds, 0.27% hits; AID 434955, 2010;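 active = about 74% or more and at least 40 points above the plate without the antibiotic, then above 30% in a dose series; inconclusive = first-round hits that could not be retested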;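 also: growth measured after seven days incubation then overnight dye step; 0% = bacteria only wells and 100% = bacteria with antibiotic; twin plates without the antibiotic show which effects depend on it; some results filed as inactive read as strong as hits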
YopH PTP inh – YopH tyrosine phosphatase inhibitors, primary screen, biochemical, fluorescence Ex485/Em525; YopH tyrosine phosphatase [Yersinia enterocolitica]; inhibition, %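 (about 10 µM by stock and volumes)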; 140,000 compounds, 0.16% hits; AID 898, 2007;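 active = inhibition of 50% or more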;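 also: controls were vehicle for no effect and minimum signal wells for full effect; inactives centre near -20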
Numbers without * were called inactive; ? = inconclusive; · = no result given; & = joins results of further samples. This is a subset, so the mix of outcomes need not match the whole.

The opening 4 entries as a preview:
SMILES | Mtb H37Rv | RecA intein inh | Arbovirus inh | Mtb betalactam | YopH PTP inh
CCN(CC)CCNC(=O)C(C)c1nn(CC)c(=O)c2ccccc12 (stereo not given) | -7% | -0.4 | 6 | -8 | -17
CCCCN1CC(=O)N2Cc3[nH]c4ccccc4c3C[C@H]2C1=O | · | -4.0 | · | -3 | ·
Cc1cnc(NC(=O)CCCc2nc3ccccc3s2)s1 | 3% | -1.8 | -20 | 2 | -114
Cc1cccc(OCC(O)Cn2c(NCc3cccnc3)nc3c2c(=O)[nH]c(=O)n3C)c1 (stereo not given) | 0% | -1.5 | 5 | -2 | 2

This part in full, repeating the preview:
SMILES | Mtb H37Rv | RecA intein inh | Arbovirus inh | Mtb betalactam | YopH PTP inh
CCN(CC)CCNC(=O)C(C)c1nn(CC)c(=O)c2ccccc12 (stereo not given) | -7% | -0.4 | 6 | -8 | -17
CCCCN1CC(=O)N2Cc3[nH]c4ccccc4c3C[C@H]2C1=O | · | -4.0 | · | -3 | ·
Cc1cnc(NC(=O)CCCc2nc3ccccc3s2)s1 | 3% | -1.8 | -20 | 2 | -114
Cc1cccc(OCC(O)Cn2c(NCc3cccnc3)nc3c2c(=O)[nH]c(=O)n3C)c1 (stereo not given) | 0% | -1.5 | 5 | -2 | 2
COC(=O)c1sc(=S)n(-c2ccccc2OC)c1N | -8% | -1.0 | 8 | 10 | -31
CC1(C)CC(=O)C(/C=N/n2cnc3ccccc3c2=O)=C(O)C1 | -9% | -3.2 | 11 | 3 | -5
COc1ccc(S(=O)(=O)N(C)C2CCS(=O)(=O)C2)cc1OC (stereo not given) | -12% | 1.9 | 15 | 0 | -34
CCOC(=O)c1c(C)oc2ccc(O)c(CN(C)C)c12 | 0% | 2.9 | 10 | 0 | -14
CCCC(=O)c1ccc(N2CCN(C(=O)c3ccccc3)CC2)c(F)c1 | 11% | 5.3 | 5 | -1 | 6
Cc1ccc(-n2nnnc2SC(C(=O)c2c[nH]c3ccccc23)c2ccccc2)cc1 (stereo not given) | 6% | 9.1 | -13 | 3 | -21

Whole records from above.
Cc1cnc(NC(=O)CCCc2nc3ccccc3s2)s1 across the screens: Mtb H37Rv: 3%; RecA intein inh: -1.8; Arbovirus inh: -20; Mtb betalactam: 2; YopH PTP inh: -114
COC(=O)c1sc(=S)n(-c2ccccc2OC)c1N across the screens: Mtb H37Rv: -8%; RecA intein inh: -1.0; Arbovirus inh: 8; Mtb betalactam: 10; YopH PTP inh: -31
CCN(CC)CCNC(=O)C(C)c1nn(CC)c(=O)c2ccccc12 (stereo not given) across the screens: Mtb H37Rv: -7%; RecA intein inh: -0.4; Arbovirus inh: 6; Mtb betalactam: -8; YopH PTP inh: -17

(continued)
SMILES | Mtb H37Rv | RecA intein inh | Arbovirus inh | Mtb betalactam | YopH PTP inh
O=C(NCCCc1ccccc1)Nc1cccc(Cl)c1 | 56% | 11 | -11 | 98 | -15
COc1ccccc1C(=O)NCCC(=O)N1CCCC(C(F)(F)F)C1 (stereo not given) | · | -7.9 | · | -9 | ·
Cc1ccc(NS(=O)(=O)c2c(C)[nH]c(C)c2C(=O)N2CCCCC2)c(C)c1 | · | -0.8 | · | 5 | ·
Cc1ccccc1OCCC(=O)N1CCN(S(=O)(=O)c2ccc(Cl)cc2)CC1 | · | -0.2 | · | -2 | ·
Cc1nc(NC(=O)CSc2nnc(C3CC3)n2C)sc1C(=O)N(C)C | · | -0.7 | · | -9 | ·
COc1ccc(C(=O)NC(=S)Nc2ccc3oc(=O)ccc3c2)cc1 | 9% | -1.4 | 5 | 4 | -32
COc1ccc(N2CCN(C(=O)c3cccc4nc(C)oc34)CC2)cc1 | 1% | -2.6 | -2 | -9 | ·
CCOc1ccccc1NC(=O)Nc1ccc(Cl)cc1 | 3% | 7.6 | 7 | -3 | -25
Cc1cc(C)nc(SCc2nnc(SCC(=O)Nc3ccccc3C)n2Cc2ccco2)n1 | -9% | 2.2 | 7 | -9 | -38
Nn1c(SCCOc2ccc(Cl)cc2)nnc1-c1cccnc1 | 2% | 3.0 | -3 | -6 | ·
Brc1cccc2sc(N3CCN(c4ccccc4)CC3)nc12 | 48% | 9.9 | -4 | 84 | ·
CC(O)CNC(=O)c1ccc(-c2nn(C)c(=O)c3ccccc23)cc1 (stereo not given) | 8% | 1.6 | -10 | -5 | -11
Cc1ccc(C)c(C2C(=O)c3ccccc3C2=O)c1 | · | -0.8 | · | 100 | ·
S=C(NC1CCCCC1)NN1CCOCC1 | -5% | 4.3 | -1 | 0 | ·
CCNCCC(CCC(C)C)c1ccc2c(c1)OCO2 (stereo not given) | 6% | -0.2 | · | 0 | ·
CS(=O)(=O)N1CCN(c2ccccc2NC(=O)c2ccc(Cl)cc2)CC1 | 1% | -0.1 | 1 | -5 | 3
CC1CCCCN1C(=O)CSc1nnc(-c2ccco2)n1CC1CCCO1 (stereo not given) | -1% | -2.6 | 2 | -4 | -2
CC(NC(=O)COc1ccccc1-c1ccccc1)c1ccccc1 (stereo not given) | -5% | 2.6 | -38 | 32 | -26
O=C(NCCN1CCOCC1)c1cc(-c2ccccc2Cl)nc2ccccc12 | · | -2.1 | · | -2 | ·
COc1ccc(Nc2c(C)cccc2C)cc1 | 0% | 3.7 | -4 | -1 | -32
COc1ccc(C)cc1NC(=O)CSc1nnnn1Cc1ccccc1 | -2% | -0.7 | -3 | -3 | 4
N=Nc1c(O)n(CC(=O)Nc2ccccc2)c2ccccc12 | · | -2.7 | · | -7 | ·
O=C1Nc2ccccc2/C1=C\C(=O)c1ccccc1 | · | 3.1 | · | 99 | ·
CC1(C)CC(NC(=O)CCc2ccccc2)CC(C)(C)N1 | -5% | -1.4 | -2 | -19 | -38
c1cnc(NC2CCCCCC2)nc1 | 2% | 0.4 | 2 | 8 | -5
COc1cc2nc(-c3ccc(Br)o3)oc(=O)c2cc1OC | 19% | 7.2 | 9 | 95 | -24
C/C(CC(=O)NC1CCCC1)=N\NC(=O)c1ccc([N+](=O)[O-])c(Cl)c1 | -7% | · | -2 | 4 | -27
COC(=O)C1C(O)=C(C=Nc2ccc(N)cc2)C(=O)CC1(C)C (stereo not given) | -10% | -6.4 | -17 | 0 | -19
O=C(Nc1cccc(-c2nc3ccccc3[nH]2)c1)c1ccc(C(=O)Nc2cccc(-c3nc4ccccc4[nH]3)c2)cc1 | -5% | 0.3 | · | 8 | ·
COc1ccc(/C=N/NC(=O)c2c(C)nc3ccccn23)cc1[N+](=O)[O-] | -6% | -0.7 | · | -10 | ·
Cc1ccc(NC(=O)CN2C(=O)NC(C)(c3ccc(Cl)cc3)C2=O)cc1 (stereo not given) | · | 0.9 | · | 2 | ·
CCCC1=C(C(=O)OCC)C(c2cccs2)n2ncnc2N1 (stereo not given) | -1% | 2.7 | · | -5 | ·
C=CCn1c(SCn2nnc3ccccc3c2=O)nnc1-c1ccc(Br)cc1 | 1% | -1.5 | 7 | 1 | 24
Cc1ccc2nc(SCCC#N)nc(C)c2c1 | -8% | 0.2 | -3 | 0 | -14
COc1cc2c(cc1OC)C(C)N(C(=O)Cn1ncc3c1-c1cc(C)ccc1OC3)CC2 (stereo not given) | -2% | 2.3 | 7 | -5 | -38
Cn1c(=O)n(CC(=O)O)c(=O)c2c1nc1n2CCS1 | -4%&-3% | 0.6&-0.9 | 2 | ? | -48
COc1cccc(C(=O)NCC(=O)N2CCC3(CC2)NCCc2[nH]cnc23)c1 | · | 0.6 | · | 4 | ·
c1ccc(CN2CCN(CCN3CCn4c3nc3ccccc34)CC2)cc1 | -8% | -0.8 | 3 | -5 | 10
Cc1ccc(SCc2cc(=O)[nH]c(N3CCOCC3)n2)cc1 | -4% | -2.2 | 8 | -3 | -46
O=C(CN1CCN(c2ccccc2)CC1)N1N=CCC1c1ccccc1 (stereo not given) | -3% | -0.5 | 6 | -11 | -5

Rewritten with values under each structure: part of the list above.
Results follow in this order: Mtb H37Rv, RecA intein inh, Arbovirus inh, Mtb betalactam, YopH PTP inh
Cc1ccc(SCc2cc(=O)[nH]c(N3CCOCC3)n2)cc1
 : -4%, -2.2, 8, -3, -46
CCCC1=C(C(=O)OCC)C(c2cccs2)n2ncnc2N1 (stereo not given)
 : -1%, 2.7, ·, -5, ·
C=CCn1c(SCn2nnc3ccccc3c2=O)nnc1-c1ccc(Br)cc1
 : 1%, -1.5, 7, 1, 24

The results go on:
SMILES | Mtb H37Rv | RecA intein inh | Arbovirus inh | Mtb betalactam | YopH PTP inh
COCC1CCCCN1Cc1cn[nH]c1-c1ccc(OC)cc1OC (stereo not given) | -5% | -1.9 | 1 | -1 | ·
COc1c(C)cccc1C(=O)Nc1ccc(CN2CCOCC2)cc1 | 0% | -1.1 | -6 | 3 | -2
Cc1ccc(/C=N/N2CCN(Cc3ccccc3)CC2)s1 | -23% | -1.2 | 2 | 6 | -12
CCCCCn1c(SCCCC)nc2c1c(=O)[nH]c(=O)n2C | -2% | 1.1 | -15 | 1 | -18
CCCCNC(=S)N(C)/N=C/c1ccc(F)cc1 | 10% | 2.4 | 4 | 94 | -7
COC(=O)[C@]1(CC(C)C)N[C@H](c2ccc(-c3cccc(Cl)c3)cc2)[C@@H]2C(=O)N(C)C(=O)[C@@H]21 | · | 0.1 | · | 2 | ·
O=C(c1cccs1)N1N=C(c2ccccc2)CC1c1ccccc1 (stereo not given) | 14% | -0.4 | -23 | 11 | -41
Cn1c(=O)oc2cc(S(=O)(=O)NCCC(=O)Nc3ccc4c(c3)OCCO4)ccc21 | -4% | -5.0 | 4 | -10 | -34
COc1ccc(C2=NOC(C(=O)Nc3cc(C)on3)C2)cc1OC (stereo not given) | -7% | 1.5 | · | 3 | ·
CCN(Cc1ccccc1)C(c1ccccn1)c1nnnn1C1CCCCC1 (stereo not given) | 6% | 1.1 | -9 | -8 | -37
Cc1ccc(S(=O)(=O)N2CCOCC2)cc1C(=O)OCC(=O)NCc1ccccc1 | · | 0.4 | · | 0 | ·
COc1ccccc1-c1coc2c(CN3CCC(C)CC3)c(O)ccc2c1=O | · | -7.8 | · | 2 | ·
CCOC(=O)c1c(NC(=O)CSc2nnc(CNc3ccc(Cl)cc3)o2)sc(C)c1C | 4% | 1.9 | 0 | 96 | -33
CC1CN(C(=O)Cn2cc(S(=O)(=O)CC(=O)N3CCOCC3)c3ccccc32)CC(C)O1 (stereo not given) | · | -0.9 | · | -11 | ·
CN(C)S(=O)(=O)Nc1ccc(Br)cc1F | -2% | 0.4 | -1 | -5 | -8
COc1cc2c(O)c3c(c(-c4ccc5c(c4)OCO5)c2cc1OC)C(=O)OC3 | -7% | -2.1 | -27 | 12 | -45
O=C(c1ccc(S(=O)(=O)N2CCOCC2)cc1)N1CCN(c2ccccn2)CC1 | 5% | -2.3 | -1 | 3 | ·
CN(C(=O)c1ccc2c(c1)OCO2)C1CCS(=O)(=O)C1 (stereo not given) | · | 1.0 | · | 1 | ·
Cc1cnc(C(=O)Oc2ccc(-c3ccccc3)cc2)cn1 | · | 24 | · | 60 | ·
O=C(N/N=C/c1c[nH]c2ccc(Br)cc12)c1ccncc1 | ? | -3.4 | -7 | 99 | -8
CCOc1cc(C(=O)NCCN2C(=O)S/C(=C\c3cccnc3)C2=O)cc(OCC)c1OCC | 1% | 13 | 5 | 6 | -15
CCCC(=O)Oc1ccc(N(C(=O)CCC)S(=O)(=O)c2cccc([N+](=O)[O-])c2)cc1 | -3% | 3.3 | -2 | 3 | -27
O=C(C1CC(=O)N(c2ccc3c(c2)OCCO3)C1)N1CCN(c2ccccc2O)CC1 (stereo not given) | · | 2.6 | · | -16 | ·
COc1cc(C(=O)NC(=S)Nc2ccc([N+](=O)[O-])cc2)cc(OC)c1OC | 12% | -0.7 | 1 | 0 | -12
C=CCCC(=O)N1CCC(CCC(=O)NC2CC2)CC1 | · | 0.3 | · | 1 | ·
COc1ccccc1/C=N/N1C(=O)C(CC(=O)Nc2ccc([N+](=O)[O-])cc2OC)SC1=Nc1cccc(C)c1C (stereo not given) | 2% | 0.9 | -18 | 1 | ·
CCOC(=O)Cn1ccc(NC(=O)c2ccc(F)cc2)n1 | · | -1.5 | · | -4 | ·
O=C(CCCCCn1c(=S)[nH]c2cc3c(cc2c1=O)OCO3)N1CCN(c2ccc(F)cc2)CC1 | · | -0.6 | · | -1 | ·
COC(C[C@H]1O[C@@H]1C(=O)COCc1ccccc1)OC | -9% | 5.8 | · | -4 | ·
Cc1ccc2c(c1)C(=O)C(=O)N2CC(=O)OC(C)C | -8% | -0.6 | -4 | -5 | -9

Source: PubChem
